VACV mCherry inh – vaccinia inhibition (mCherry reporter); Vaccinia virus mCherry reporter infection, fluorescence; about a quarter of the inactives have no number; Potency, µM (highest dose often 36.5 µM), for inactives: top-dose activity change, negative = inhibition, hits mostly inhibitors; hit rate 0.63% among 310,000; AID 720579; active = well fitted inhibition curve with a large enough effect; inconclusive = small, poorly fitted or top-dose-only effect; inactive = no such curve, though single readings can be large or run the other way; tested in A549 cells; further: nearly all actives have a fitted effect of over 35% in size; inactives centre near -10
VACV Venus inh – inhibitors of vaccinia virus (Venus reporter) | Vaccinia virus Venus reporter expression, fluorescence | hit rate 0.46% among 330,000 | Potency, µM (titrated, usually from 36.5 µM), without a hit: at the top dose activity change, negative = inhibition, most hits filed as inhibitors; active means well fitted inhibition curve with a large enough effect; inconclusive means small, poorly fitted or top-dose-only effect; inactive means no such curve, though single readings can be large or run the other way; tested in A549 cells; further: nearly all actives have a fitted effect of over 30% in size; inactives centre near -10
Numbers without * were called inactive; i = inactive; u = inconclusive; x = no result given; & = joins results of further samples; [ ] = dose if it differs, or a comment. On the % scale 0 is the no-effect control and ±100 the full control effect; potency means the concentration at half of the fitted maximal effect.

SMILES	VACV mCherry inh	VACV Venus inh
CCn1cc(C(=O)N2CCN(c3ccc(C(C)=O)cc3)CC2)c2cc(OC)c(OC)cc2c1=O	-18%	-19%&-21%
COc1ccc(C(C)(C)C)cc1S(=O)(=O)N1CCN(C)CC1	x	-17%
CC(O)Cn1cnc2c1c(=O)n(C)c(=O)n2C (configuration not stated)	-20%	-15%
COc1nc(-c2cnccn2)sc1C	i	-1%
CCCCC(=O)OCC(=O)Nc1ccc(OC(F)F)cc1	i	-11%
O=C(Nc1ccc(Cl)cc1)c1nc[nH]c1C(=O)Nc1ccccc1F	-16%	-27%
CCc1nn(CC(=O)NCCCN(CC)CC)c(=O)c2cc3occc3n12	-19%	-3%
COc1ccc(-c2cn3c(C)c(C(=O)Nc4cc(NC(C)=O)ccc4OC)sc3n2)cc1	-19%	-8%
O=C1NS(=O)(=O)c2ccccc21	i	-13%
CCCCC(=O)NCCc1cc2c(C)ccc(C)c2[nH]c1=O	i	-6%
COc1ccc(CCNC(=O)C(C)SCC(=O)Nc2ccc(F)cc2)cc1 (configuration not stated)	-13%	20%
COCCNC(=O)CN1C(=O)CC(C)(C)S(=O)(=O)c2ccccc21	-12%	-5%
O=C(NCc1ccc2[nH]c3c(c2c1)CCCC3)c1ccc(S(=O)(=O)N2CCCCC2)cc1	-25%	-29%
COc1cccc(N2CN(C3CCCCC3)CNC2=S)c1	-18%	1%
CC(C)n1cc(CN2CCC(n3nccc3NC(=O)Cc3ccccc3)CC2)cn1	i	-13%
COc1cccc(C(=O)NN2C(=O)C3C4C=CC(O4)C3C2=O)c1 (configuration not stated)	-28%	-20%
COc1cccc(C(=O)COC(=O)C(C)N2C(=O)C3C4C=CC(C4)C3C2=O)c1 (configuration not stated)	x	-14%
CCOC(=O)c1cn(Cc2ccccc2)c(C(=O)OC(C)(C)C)c1O	i	-20%
O=C(O)c1ccc2c(c1)C(=O)N(c1nccs1)C2=O	2%	-12%
Cc1c(C(=O)NCCC#N)sc(=O)n1Cc1ccc(F)cc1	15%	12%
COc1ccc(-c2cc(=O)oc3c(O)c(O)ccc23)cc1	11µM*	u
O=C1NC(c2ccncc2)Nc2ccccc21 (configuration not stated)	x	-10%
CC(Cc1cccs1)NC(=S)Nc1ccccc1 (configuration not stated)	-6%	-16%
C=CCOC(=O)C1=C(C)NC(SCC)=C(C#N)C1c1ccc(Cl)cc1 (configuration not stated)	i	-20%
Cc1cc(Br)cn2c(Cc3cccc(F)c3)c(-c3ccc(F)cc3)nc12	2%	2%
Further records.
SMILES	VACV mCherry inh	VACV Venus inh
Cc1cc(Nc2ccc(F)cc2F)nc(-n2nc(C)cc2C)n1	-11%[7.34 µM]	-8%[7.34 µM]
COc1cccc2sc(N(CCN(C)C)C(=O)c3ccc4c(c3)CCCC4)nc12	-21%	-15%
Nc1nc2ccc(Cl)cc2c2nc(-c3ccco3)nn12	-13%[60.7 µM]	-11%[60.7 µM]
Cc1oc(-c2ccc(C(=O)NCc3ccccc3)cc2)nc1CN1CCc2ccccc21	-29%	-24%
O=C(c1ccc(CN2CCc3ccccc3C2)cc1)N1CCN(c2ccc(F)cc2)CC1	u	-24%
CCCN(CCC)C(=O)C[n+]1cccc(/C=N/O)c1	-10%	1%
Cc1ccc(C)c(NC(=O)c2cccc(Oc3ccc([N+](=O)[O-])cc3Cl)c2)c1	u	u
CCOC(=O)c1ccc2c(c1)N(CC(=O)Nc1ccc(C)cc1C)C(=O)c1ccccc1S2	-6%	4%
COCCCNC(=O)c1nn(-c2ccc(C)cc2)nc1CO	-3%	-5%
COCCN(CC(=O)NCc1ccc(F)cc1)C(=O)CCC(=O)Nc1ccccn1	x	-4%
Cc1nccn1C(c1ccccc1)c1ccccc1	i[7.34 µM]	-7%[7.34 µM]
CCc1c(C)sc(NC(=S)N2CCN(C(=O)C3CCCO3)CC2)c1C(=O)OC (configuration not stated)	i	-17%
COc1cc(O)c(C(CC(=O)N2CCCC(C)C2)c2ccc(N(C)C)cc2)c(OC)c1 (configuration not stated)	-14%	-8%
O=S(=O)(c1ccccc1)c1cnc(-c2ccccc2)nc1N1CCCC1	5%	-26%
Cc1c(C#N)c(NC(=O)CCl)n(Cc2ccccc2)c1C	u	u
CSc1nnc(SCC(=O)NC(=O)c2ccccc2)s1	-17%	-12%
O=C1C(Cl)=C(NCCCN2CCOCC2)C(=O)c2ccccc21	-11%	23%
CCC(c1nnnn1CS(=O)(=O)c1ccc(C)cc1)N1CCC(C(N)=O)CC1 (configuration not stated)	i	-15%
COc1ccc(CNCc2cccc(C)c2)cc1	i	-12%
CCCNC(=O)C1(C)CCCN(Cc2ccc(C(=O)OCC)o2)C1 (configuration not stated)	36%[activator]	1%
COc1ccc(S(=O)(=O)N2CCC(C(=O)Nc3ccc(Oc4ccccc4)cc3)CC2)cc1OC	-28%	-17%
O=C(NC1(C(F)(F)F)N=C(c2ccccc2)NC1=O)c1ccccc1 (configuration not stated)	-13%	-9%
Cn1ncc2c(N3CCC(Cc4ccccc4)CC3)ncnc21	i	-9%
COC(=O)c1cc(C(=O)Nc2nnc(C3CC3)s2)cc([N+](=O)[O-])c1	-1%	-10%
Cc1ccc(NC(=O)c2sc(N)nc2-c2ccc([N+](=O)[O-])cc2)c(C)c1	u	-8%
Later entries:
SMILES	VACV mCherry inh	VACV Venus inh
NC(=O)CC(NC(=O)Cc1cccc2ccccc12)c1ccc(NCc2ccccn2)c([N+](=O)[O-])c1 (configuration not stated)	-1%	-8%
Cc1nc(CC(=O)NNS(=O)(=O)c2ccc(F)c(Cl)c2)cs1	-12%	-7%
Cc1cccc(-c2nc(SCC(=O)Nc3cccc(C(F)(F)F)c3)n3[nH]c(=O)cc3n2)c1	i	-4%
COc1ccc(NC(=O)Nc2ccc(OCC(=O)N3CCOCC3)cc2)cc1OC	-4%	-8%
COc1cc(O)oc1C=Nc1ccc(C(=O)O)cc1	-12%	6%
CNS(=O)(=O)c1ccc(N=Cc2c(O)n(-c3ccc(C)cc3)c(=O)[nH]c2=O)cc1	-11%	-17%
CC(=O)c1sc(NC(=O)CCCOc2ccc(Cl)cc2)nc1C	0%	-5%
Cc1ccc(NC(=S)NC(=O)/C=C/c2ccc(Cl)cc2)cc1	i	-3%
COc1ccc(C(=O)OCC(=O)Nc2nc3c(F)c(F)c(F)cc3s2)cc1OC	-10%	3%
CCN(C(=O)CCn1cnc2onc(-c3ccc(F)cc3)c2c1=O)c1ccc(OC)cc1	-20%	-8%
CCCCn1c(N)c(N2CCOCC2)c(=O)n(CC(=O)NCCc2ccccc2)c1=O	-22%	3%
O=C(c1ccc(CNc2c(N3CCCC3)c(=O)c2=O)cc1)N1CCc2ccccc2C1	9%	-12%
CC(C)COP(=O)(OCC(C)C)C(Nc1ccccc1)c1ccc(F)cc1 (configuration not stated)	-8%	u
C[C@H](CO)N1C[C@H](C)[C@@H](CN(C)S(C)(=O)=O)Oc2ccc(NC(=O)Nc3ccc(C(F)(F)F)cc3)cc2C1=O	-14%	-2%
CCCN(CCc1ccccc1)C1CCc2c(O)cccc2C1 (configuration not stated)	-6%&-1%	-17%&-18%
CCN(Cc1ccccc1)C1CCN(Cc2ccc(SC)cc2)CC1	-21%	-7%
NC(=O)COC(=O)c1ccc2c(c1)C(=O)N(Cc1ccco1)C2=O	-11%	15%
COc1ccccc1OCc1ccc(C(=O)N2CCN(C)CC2)o1	i	-2%
C[C@@H]1CCCCO[C@H](CN(C)S(=O)(=O)c2ccccc2)[C@@H](C)CN([C@H](C)CO)C(=O)c2cc(NC(=O)Cc3ccccc3)ccc2O1	-3%	-22%
Cc1cccc(/C=C/c2cccs2)n1	u	u
COc1ccc(CN2CCCC(C(=O)c3ccc(SC)cc3)C2)cc1Cn1cccn1 (configuration not stated)	-16%	-15%
CNC(=O)Oc1ccc2ncccc2c1	i	-13%
Cc1c(C(=O)O)sc2nc3n(c(=O)c12)CCC3	-9%	-9%
CC(=O)Nc1c(C(=O)N2CCCCCC2)cnn1-c1ccccc1	i	-12%
CC(C)c1ccc(C(C(=O)NC2CCCCC2)N(C(=O)c2csnn2)C2CC2)cc1 (configuration not stated)	-2%	-17%
New compounds follow.
SMILES	VACV mCherry inh	VACV Venus inh
COc1ccc(F)cc1S(=O)(=O)N1CCCN(S(=O)(=O)c2cc(F)ccc2OC)CC1	i	-16%
CCS(=O)(=O)CCSc1nc2c(cc1C#N)CCCC2	-23%	-19%
Cc1ccccc1-c1nc(CS(=O)(=O)CC(=O)N2CCc3ccccc3C2)c(C)o1	1%	5%
O=C(c1ccc2c(=O)n(C3CCCC3)c(=S)[nH]c2c1)N1CCN(C2CCCCC2)CC1	-16%	-2%
COc1ccccc1N1CCN(S(=O)(=O)c2cc(Br)cnc2N)CC1	u	-11%
Nc1c(-c2ccccc2)c(CN2CCOCC2)nn1-c1ccc(F)cc1	-4%	-11%
CN(C)CCNC(=O)COc1cccc(Cl)c1	-14%	-7%
Cc1ccc(NC(=O)Cn2nc([N+](=O)[O-])c(Br)c2C)cc1C	-27%	-15%
O=[N+]([O-])c1cccc(-c2nc(-c3ccncc3)no2)c1	x	16%
COCCNC(=O)CSc1nc2sc(C)c(C)c2c(=O)n1-c1ccccc1	-5%	-9%
O=C(CSc1ccc(-c2ccccn2)nn1)NCc1ccc(Cl)cc1	u	-16%
O=C(COC(=O)c1cccs1)Nc1ccc(Cl)cn1	i	-2%
CCOc1ccc(/C=C(\C#N)c2nc3ccccc3c(=O)[nH]2)cc1OC	-12%	-2%
O=C(c1ccncc1)N1CCN(C2CCC(c3ccccc3)CC2)CC1 (configuration not stated)	i	-12%
COc1n[nH]c(C(=O)Nc2cc(F)ccc2C)c1[N+](=O)[O-]	i	-17%
COc1ccc(-c2cncnc2N)cc1OC	-26%	-10%
Cc1cccc(CN2CCN(Cc3cccc4nonc34)CC2CCO)n1 (configuration not stated)	-7%	-8%
CCCN(C(=O)COC(=O)COc1c(C)cccc1C)c1c(N)n(Cc2ccccc2)c(=O)[nH]c1=O	i	-9%
CCOC(=O)c1cc(-c2ccccc2)n(CC(=O)NCc2ccc(C)cc2)c1C	i	-24%
CCOc1ccccc1NC=C1C(=O)OC2(CCCCC2)OC1=O	i	-20%
CN(C(=O)c1ccc(F)cc1)c1ccccc1C(=O)NCc1ccccc1	i	-16%
CN1C(=O)c2ccccc2Sc2ccc(NC(=O)NCc3ccccc3Br)cc21	-22%	-22%
COC(=O)COc1cccc(NC(=O)C(c2ccccc2)c2ccccc2)c1	-5%	-2%
COc1cccc(-c2oc3c(c2C#CC2(N)CCCCC2)C(O)CCC3)c1 (configuration not stated)	-2%	-18%
CN[C@H](C)C(=O)NC[C@H]1O[C@@H](n2cc(C)c(=O)[nH]c2=O)C[C@@H]1O	-9%	-13%
Going on with the list.
SMILES	VACV mCherry inh	VACV Venus inh
O=C(CSC1=NCCN1)NC1CCCCCC1	-19%	-17%
C/C(=N\NC(=O)c1ccccc1)c1c(O)n(Cc2ccccc2)c(=O)[nH]c1=O	-3%[7.34 µM]	-2%[7.34 µM]
CC1CCCN(CCCOc2ccccc2-c2ccccc2)C1 (configuration not stated)	-27%	u
O=C(NCCOc1ccccc1)C1C(=O)Nc2ccccc2C(=O)N1C1CCCCC1 (configuration not stated)	-15%	-7%
FC(F)(F)c1cccc(NC(=S)NC(c2ccccc2)c2ccccc2)c1	u	u
CCC1(c2ccc(F)cc2)NC(=O)N(CC(=O)NC2CCCCCC2)C1=O (configuration not stated)	-8%	-4%
COc1ccccc1C(=O)NC(=O)CSc1cccc[n+]1[O-]	-6%	-3%
O=c1c2c3c(sc2nc(NCCO)n1-c1ccccc1)CCCC3	-8%	-24%
O=C(CCN1C(=O)/C(=C\c2ccccc2)SC1=S)Nc1ccc(C(=O)O)cc1	17%	5%
COc1ccc(C(=O)n2nc(C)cc2Nc2ccccc2)cc1	x	9%
COc1cc(/C=N/N2CCN(C3c4ccccc4-c4ccccc43)CC2)ccc1O	x	u
O=C(CCCCn1ccc(=O)[nH]c1=O)Nc1ccc(C(=O)O)c(O)c1	i	-3%
Cn1c(=O)c2c(SCC(=O)N3CCc4ccccc43)nc(-c3ccc(Cl)cc3)nc2n(C)c1=O	3%	3%
Cc1ccccc1NS(=O)(=O)c1cc(C(=O)NCCSC2CCCCC2)ccc1C	-17%	-13%

Reprinted at random: 4 records from the list
SMILES	VACV mCherry inh	VACV Venus inh
C/C(=N\NC(=O)c1ccccc1)c1c(O)n(Cc2ccccc2)c(=O)[nH]c1=O	-3%[7.34 µM]	-2%[7.34 µM]
COc1ccccc1C(=O)NC(=O)CSc1cccc[n+]1[O-]	-6%	-3%
O=C(CSC1=NCCN1)NC1CCCCCC1	-19%	-17%
Cc1ccccc1NS(=O)(=O)c1cc(C(=O)NCCSC2CCCCC2)ccc1C	-17%	-13%

Seven entries from above, with bars between the fields:
canonical_smiles | VACV mCherry inh | VACV Venus inh
CC1CCCN(CCCOc2ccccc2-c2ccccc2)C1 (configuration not stated) | -27% | u
COc1cc(O)c(C(CC(=O)N2CCCC(C)C2)c2ccc(N(C)C)cc2)c(OC)c1 (configuration not stated) | -14% | -8%
C=CCOC(=O)C1=C(C)NC(SCC)=C(C#N)C1c1ccc(Cl)cc1 (configuration not stated) | i | -20%
Cc1c(C(=O)O)sc2nc3n(c(=O)c12)CCC3 | -9% | -9%
CNS(=O)(=O)c1ccc(N=Cc2c(O)n(-c3ccc(C)cc3)c(=O)[nH]c2=O)cc1 | -11% | -17%
CC(=O)Nc1c(C(=O)N2CCCCCC2)cnn1-c1ccccc1 | i | -12%
CCOc1ccc(/C=C(\C#N)c2nc3ccccc3c(=O)[nH]2)cc1OC | -12% | -2%

Compound activity deposited in PubChem BioAssay by National Center for Advancing Translational Sciences (NCATS).

Hits appear at their usual frequency, and some 0.88% of all compounds hit somewhere here.
